# RanGTP-Impb inh = inhibitors of RanGTP-importin-beta interaction, primary screen, biochemical, FRET, CFP-Ran, YFP-importin-beta, homogeneous; cell-free CFP-Ran/YFP-importin-beta FRET ratio; inhibition, % (concentration not given with the values); 1.1% of 300,000 active; AID 2216;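 active = most replicates above 15%; inconclusive = exactly half above 15%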;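 note: 0% = DMSO wells and 100% = Ran loaded with GDP instead of GTP; wells of about 40 µL received 100 nL stock; the first replicate is given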
# Beta cell apopt = blocks beta cell apoptosis. INS-1E cytokine-induced death, ATP luminescence, 48 h; percent of positive-control rescue, neutral wells zero. protection from apoptosis, % (concentration not given with the values). 0.8% of 300,000 active. AID 435005;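 active = all replicates at 75% or more, or half of them and the mean; inconclusive = half reach 75% but not the mean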;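 note: 0% = cytokine-treated negative control wells and 100% = positive control rescue; higher means more ATP so stronger rescue from cytokine killing; wells of about 40 µL received 100 nL stock; the first replicate is given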
# A1 inh = inhibitors of the anti-apoptotic protein A1, read as caspase activation; MEF A1-2A-BIM cells, Caspase-Glo 3/7 luminescence, 3 h; percent of clofoctol response, vehicle zero; caspase activation, % (concentration not given with the values); 0.066% of 330,000 active; AID 2462;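 active = over half of replicate activation scores above 10%, or exactly half above 10 with the replicate mean above 10; inconclusive = replicate mean below 10 yet half the replicates above 10; inactive = over half of replicates below 10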;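 note: wells of about 30 µL received 50 nL stock; many hits fall short of the cut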
# LANA-H2B inh = blocks KSHV LANA binding to histone H2A/H2B | Q9QR71 | cell-free LANA-H2A/H2B peptide, fluorescence polarization | inhibition, % (concentration not given with the values) | 0.6% of 320,000 active | AID 2629; in the data active = inhibition mostly above about 10%, no sharp cut-off; inactive = mostly below about 6.7%;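 note: stock transfer was 7.5 nL into about 10 µL; 0% = median of vehicle wells and 100% = median of positive control wells; one replicate is shown; the record names a cut of 25% in any replicate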
# Target sequence (Q9QR71 whole entry, looked up): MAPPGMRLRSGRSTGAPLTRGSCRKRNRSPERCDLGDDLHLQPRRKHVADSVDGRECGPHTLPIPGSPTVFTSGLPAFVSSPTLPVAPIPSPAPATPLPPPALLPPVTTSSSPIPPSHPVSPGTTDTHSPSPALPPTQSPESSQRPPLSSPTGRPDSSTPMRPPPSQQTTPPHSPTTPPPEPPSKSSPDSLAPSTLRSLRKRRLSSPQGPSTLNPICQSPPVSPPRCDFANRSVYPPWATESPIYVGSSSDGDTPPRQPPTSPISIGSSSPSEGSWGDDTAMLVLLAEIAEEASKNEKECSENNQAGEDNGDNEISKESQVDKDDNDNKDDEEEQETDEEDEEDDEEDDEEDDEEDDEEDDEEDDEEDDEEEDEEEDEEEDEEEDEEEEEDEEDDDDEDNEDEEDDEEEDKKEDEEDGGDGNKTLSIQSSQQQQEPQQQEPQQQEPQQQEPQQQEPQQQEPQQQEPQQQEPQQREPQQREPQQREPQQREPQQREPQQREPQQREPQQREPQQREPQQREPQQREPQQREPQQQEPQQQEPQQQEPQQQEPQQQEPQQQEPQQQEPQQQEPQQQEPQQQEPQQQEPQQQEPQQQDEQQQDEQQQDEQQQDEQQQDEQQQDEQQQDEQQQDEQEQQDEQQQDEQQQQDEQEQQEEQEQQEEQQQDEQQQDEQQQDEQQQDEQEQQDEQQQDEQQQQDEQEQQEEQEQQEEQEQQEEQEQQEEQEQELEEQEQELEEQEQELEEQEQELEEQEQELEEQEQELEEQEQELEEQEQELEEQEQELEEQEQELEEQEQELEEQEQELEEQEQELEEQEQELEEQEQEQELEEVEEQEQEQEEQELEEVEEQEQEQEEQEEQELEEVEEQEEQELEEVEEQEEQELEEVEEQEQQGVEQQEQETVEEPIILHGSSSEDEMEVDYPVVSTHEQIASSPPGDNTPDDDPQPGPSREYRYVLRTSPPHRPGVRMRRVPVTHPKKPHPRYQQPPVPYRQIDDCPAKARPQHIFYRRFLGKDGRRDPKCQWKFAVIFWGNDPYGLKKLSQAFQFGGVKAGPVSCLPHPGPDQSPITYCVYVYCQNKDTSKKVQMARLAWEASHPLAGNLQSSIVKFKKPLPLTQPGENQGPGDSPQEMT
# Vif A3G = HIV-1 Vif–A3G interaction blockers – biochemical, TR-FRET, GST-Vif 1-94, biotin-A3G peptide, dose response retest, primary screen (AID 1117319); inhibition, %, or IC50 in µM where a hit was titrated; 0.57% of 260,000 active; TR-FRET GST-Vif / biotin-A3G peptide binding; higher % means a stronger effect; test concentration not given here; strong numbers were not always called active;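 active = above the screen mean plus three standard deviations and confirmed in dose response; inconclusive = results disagree or hit not tested in dose response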;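 note: Vif residues 1-94 fused to GST binding biotinylated APOBEC3G peptide 110-148; 0% = full assay without inhibitor and 100% = GST in place of GST-Vif; retest series ran down from 100 µM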
# Calb FLC = C. albicans growth modulation with fluconazole | C. albicans CaCi-2 (fluconazole-resistant clinical isolate) + fluconazole, Alamar Blue growth, 48 h | growth inhibition, % (test concentration not listed) | 0.57% of 300,000 active;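 active = most replicates above 75%; inconclusive = exactly half above 75%; inactive = most below 75%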;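 note: all wells also contain fluconazole at 8 µg/ml as a sub-toxic cotreatment; 0% = median of DMSO wells and 100% = median of geldanamycin control wells; wells of about 8 µL received 7.5 nL stock; the first replicate is given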
# AF4-AF9 inh = inhibitors of human MLL-AF4/AF9 interaction. P42568. AlphaScreen, biotin-AF4 peptide binding to FLAG-AF9. inhibition, % at 10 µM. 0.47% of 350,000 active. AID 651704;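 active = every replicate reaching a set inhibition limit, whatever the replicate mean, cut at about 25% in these data; inconclusive = mean inhibition reaches that limit but some replicates miss it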;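 note: 0% = plate neutral control median and 100% = total signal loss; the record names both 10 and 1 µM as test concentration; the first replicate is given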
# T cruzi repl = blocks replication of Trypanosoma cruzi; inhibition, % (concentration not given with the values); T. cruzi beta-gal in NIH3T3, luminescence, 90 h; 1.4% of 300,000 active;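 active = mean inhibition across valid replicates above about 55%, limit read from the data; inconclusive = mean below that limit but half or more replicates reach it; inactive = mean below it, under half of replicates reach it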;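 note: signal also drops with host cell toxicity which is not excluded here; 0% = plate median of DMSO wells and 100% = zero luminescence signal; higher percent means less beta-gal luminescence so fewer parasites; stock transfer was 50 nL into about 50 µL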
# The depositor's hits bear a star; ? = inconclusive; / = not tested or not shown; & = joins results of further samples.
SMILES,RanGTP-Impb inh,Beta cell apopt,A1 inh,LANA-H2B inh,Vif A3G,Calb FLC,AF4-AF9 inh,T cruzi repl
CS(=O)(=O)Nc1ccc(C(=O)N2CC(=O)Nc3ccccc32)cc1,7.5,/,0.1,0.8,/,1,-1.5,-1
CN1CC(C(=O)Nc2ccc(F)c(Cl)c2)CC1=O (stereo not drawn),?,-3,0.0,2.6,/,2,-6.3,1
CSCCC(NC(=O)COc1ccccc1)C(=O)N(C)Cc1ccc(SC)cc1 (stereo not drawn),/,-3,-0.4,-2.2,25%,/,3.2,/
COc1ccc2c(c1)CC1c3c(cc4c(c3-2)OCO4)CC[N+]1(C)[O-] (stereo not drawn),-4.8,4,-0.4,6.7,19%,-2,7.0,-7
O=C(/C=C/c1cccs1)Nc1nc(-c2ccccc2)cs1,-4.7,4,0.6,2.5,-9%,-18,/,-90
O=C(NCCn1cc(SCc2ccc(F)cc2)c2ccccc21)c1c(F)cccc1F,2.2,17,-0.4,5.5,?,4,4.3,16
COc1ccc(CN2CCCCC2C(=O)Nc2ccc(OC)c(OCC(C)C)c2)cc1OC (stereo not drawn),1.3,1,0.5,4.0&-13,8%,1,-2.9,16
NS(=O)(=O)c1ccc(NC(=O)N2c3ccccc3Sc3ccccc32)cc1,5.7,-1,0.7,1.2,-58%,1,7.9,8
CCC(=O)Nc1nc(C)c(Oc2ccccc2)c(=O)[nH]1,1.1,-2,-0.3,-3.3,2%,6,/,-20
Cc1ccc(/C=N/NC(=O)c2ccco2)s1,3.9,2,-1.6,4.5,6%,0,/,-17
Cc1ccc(C(=O)N/C(=C/c2cccnc2)C(=O)N2CCCCCC2)cc1,1.2,-1,0.3,0.7,3%,-4,-2.2,4
CC(C)[C@H](NC(=O)[C@@H]1CSC2c3ccccc3C(=O)N21)C(=O)NCc1ccco1 (stereo partly drawn),0.5,-9,-0.4,-0.5,7%,2,-7.4,-8
c1coc(C2Nc3cccc4cccc(c34)N2)c1,?,-6,-0.2,4.9,?,9,/,/
Oc1ccccc1-c1cc(-c2ccccc2Cl)[nH]n1,/,6,-6.4,-0.5,7%,-35,5.7,4
CCn1c(COc2cccc3cccnc23)nnc1SC(F)F,-3.1,-1,0.2,-2.6,/,-1,-14,-1
O=C(CCSc1ccc(Cl)cc1)NCc1ccncc1,-1.8,-6,-0.4,-2.4,-5%,27,1.8,1
COc1ccc(C(=O)NCc2csc(C)n2)cc1OC1CCN(C(C)=O)CC1,-0.8,-2,-0.1,3.7,-1%,-5,-0.5,-10
CCOC(=O)Nc1ccc2c(c1)nc(CN1CCN(C(C)=O)CC1)n2C,-0.6,-4,-0.6,-3.3,20%,38,/,1
Cc1ccc(/C=C2\SC(=O)N(CCNC(=O)C3CSC4(C)CCC(=O)N34)C2=O)cc1 (stereo not drawn),0.0,-4,0.2,2.3,5%,-23,0.3,-2
O=C(c1nc2ccccn2c1CNCCOc1cccnc1)N1CCOCC1,-2.0,-9,1.2,-3.4,-4%,1,-0.9,-8
CCOc1ccccc1-n1c(SCC(=O)N2CCCc3ccccc32)nnc1-c1cccnc1,3.2,-10,1.2,-1.7,2%,3,/,-8
CC(=O)c1ccc(NC(=O)C(NC(=O)c2ccccc2)=C(C)C)cc1,?,-1,-1.7,0.9,5%,-14,-2.0,-3
CC(C)C12CN3CCN(CC(C3)/C1=N\NC(=O)Nc1ccccc1)C2,-1.6,-1,0.0,1.3,-3%,-3,/,22
CCSc1ncnc2sc(C)c(C)c12,-2.8,-10,0.1,/,/,7,/,-17
CCNS(=O)(=O)c1ccc(CCC(=O)Nc2ccccc2C(=O)OC)cc1,-2.4,5,-0.4,-2.0,-1%,-6,/,3
CCN(CC)c1nc(-c2nn[nH]n2)nc(N(CC)CC)n1,0.2,-5,0.9,-0.9,3%,-11,/,1
Cc1ccc(-c2nn(CCC(=O)Nc3cccnc3)c(=O)c3ccccc23)cc1,4.2,-16,-0.2,0.4,/,-3,/,-5
CCOC(=O)C/C(C)=N/NC(=O)Nc1ccccc1,5.2,4,0.2,3.8,6%,-35,/,-15
N#Cc1cncc(C#Cc2ccccc2)c1,-3.3,-12,-0.6,3.2,/,-3,-2.7,-11
CCCOc1ccc(C(=O)N2CCCc3ccccc32)cc1,0.2,/,-1.2,-4.0,7%,-14,/,11
COc1ccc(OC)c(/C=N/NC(=O)C(=O)N2CCCC2)c1,2.3,-1,-0.2,-6.1,/,-16,-0.7,-4
Cc1ccc(Cl)cc1NC(=O)CCN1C(=O)C2C3CCC(C3)C2C1=O (stereo not drawn),3.8,-2,-0.5,-8.7,-2%,49,-0.8,-9
CC(=O)Nc1ccccc1N(C)S(=O)(=O)c1ccc(C)cc1,-0.6,-2,0.1,2.8,-1%,-8,/,-1
COC(=O)C1CN(C(=O)COc2ccc(Cl)cc2Cl)c2ccccc2O1 (stereo not drawn),5.6,-4,1.2,-5.9,-3%,-2,-6.4,-3
CC(CCc1ccccc1)NC(=O)[C@@H]1Cc2ccccc2CN1 (stereo partly drawn),1.2,-2,-0.4,2.6,10%,-10,-1.9,14
Cc1cc(OC(C)C(=O)NNC(=O)Nc2ccc(F)cc2F)cc(C)c1Cl (stereo not drawn),-2.1,-7,2.0,-1.4,2%,-5,0.8,1
CC1(c2ccc([N+](=O)[O-])cc2)NC(=O)N(CC(=O)Nc2cccnc2Cl)C1=O (stereo not drawn),9.0,-20,-0.1,-2.6,-5%,15,-0.1,3
Cc1c(OCC(=O)N2CCC(C(=O)O)CC2)ccc2c3c(c(=O)oc12)CCCC3,2.2,/,1.5,-5.5,/,-5,-4.2,15
CC(C)NC(=O)N(C)C[C@H]1Oc2c(NC(=O)Nc3ccc(C(F)(F)F)cc3)cccc2C(=O)N([C@H](C)CO)C[C@@H]1C,/,8,0.2,-1.4,/,/,-0.6&2.9,/
COc1cccc(NC(=O)C(C)SCc2ccccc2)c1 (stereo not drawn),-2.6,-2,1.5,-1.5,22%,-13,3.0,6
CN(C(=O)C1CCN(S(=O)(=O)c2cccc3nonc23)CC1)C1CCCCC1,1.9,2,-1.7,0.6,3%,0,1.8,-3
CCn1c(SC)nc2cc(S(=O)(=O)N3CCCCC3)ccc21,/,2,-0.3,1.6,4%,/,3.3,/
O=C(COC(=O)/C=C/c1ccccc1[N+](=O)[O-])NC1CCS(=O)(=O)C1 (stereo not drawn),-1.6,-6,-0.3,0.9,-4%,-3,1.1,-9
CSc1cccc(NC(=O)CN2C(=O)COc3ccc(S(=O)(=O)N4CCOCC4)cc32)c1,6.1,-6,-0.1,1.5,0%,-19,-1.2,6
OC1(C#Cc2c(-c3ccsc3)oc3ccc(N4CCOCC4)cc23)CCCCC1,-2.2,/,2.6,-4.1,/,-10,7.8,14
O=C(O)c1cc(-c2ccccc2)c(N2CCOCC2)s1,2.7,-2,-0.7,2.4,2%,-3,/,-5
C[C@H](CO)N1C[C@H](C)[C@@H](CN(C)C(=O)Nc2ccc3c(c2)OCO3)Oc2c(NC(=O)Nc3ccc4c(c3)OCO4)cccc2C1=O,/,-3,1.7,-0.9,/,/,-0.4,/
Cc1ccc(SCCCn2cnc3ccccc3c2=O)cc1,1.7,-1,-0.7,-1.2,-3%,8,/,9
COc1cccc(C(=O)C2CCCN(Cc3cccn3-c3cccnc3)C2)c1 (stereo not drawn),-4.2,3,0.5,-6.6,6%,-16,11,51
Cc1nc(C(F)(F)F)ccc1C(=O)Nc1ccc(C(F)(F)F)cn1,-1.3,1,0.6,-3.3,/,-4,-1.8,30
Cc1cccc(/N=C/c2c(O)n(Cc3ccc4c(c3)OCO4)c(=O)c3ccccc23)n1,0.9,-1,0.4,1.7,-5%,-8,-2.1,4
Cc1cccc(C)c1N1C(=O)[C@@H]2C(c3ccccc3Cl)=NO[C@@H]2C1=O,?,-6,0.5,-1.3,-6%,13,0.3,-13
O=C(CNc1ccc(Br)cc1)NNC1=NCCC1,0.8,-3,0.9,/,-9%,-12,/,-1
CC(=O)Nc1c2c(nn1-c1ccccc1)CSC2,3.4,-7,0.3,4.5,4%,4,0.7,-3
O=[N+]([O-])c1ccccc1CNCCO,/,0,-0.2,-4.3,/,/,-0.6,/
Cc1cc(Cl)ccc1NC(=O)NC1CCN(S(=O)(=O)c2ccc(F)cc2)CC1,1.6,3,-0.8,-2.9,7%,-5,/,4
COc1ccc(-c2coc3cc4oc(=O)cc(C)c4cc23)cc1F,0.2,12,0.2,7.2,-5%,3,/,-21
O=C(COC(=O)CC(c1ccccc1)c1ccccc1)NCc1ccccc1,/,-2,0.4,2.3,19%,10,0.3,10
CCN(C(=O)CSc1nc2ccccc2c(=O)n1C(C)COC)C1CCS(=O)(=O)C1 (stereo not drawn),8.9,-3,-0.5,2.1,3%,16,0.0,4
O=C(NC1(C(F)(F)F)NC(=O)N(c2ccc(F)cc2)C1=O)c1cccs1 (stereo not drawn),?,3,2.1,4.5,/,5,/,-1

# An excerpt from above in order of their number in LANA-H2B inh, descending:
SMILES | RanGTP-Impb inh | LANA-H2B inh | Vif A3G | AF4-AF9 inh
CC(=O)Nc1c2c(nn1-c1ccccc1)CSC2 | 3.4 | 4.5 | 4% | 0.7
O=C(O)c1cc(-c2ccccc2)c(N2CCOCC2)s1 | 2.7 | 2.4 | 2% | /
O=C(COC(=O)CC(c1ccccc1)c1ccccc1)NCc1ccccc1 | / | 2.3 | 19% | 0.3
C[C@H](CO)N1C[C@H](C)[C@@H](CN(C)C(=O)Nc2ccc3c(c2)OCO3)Oc2c(NC(=O)Nc3ccc4c(c3)OCO4)cccc2C1=O | / | -0.9 | / | -0.4
Cc1ccc(SCCCn2cnc3ccccc3c2=O)cc1 | 1.7 | -1.2 | -3% | /
O=[N+]([O-])c1ccccc1CNCCO | / | -4.3 | / | -0.6

# In a second layout: results already given
# Order of results: RanGTP-Impb inh | Beta cell apopt | A1 inh | LANA-H2B inh | Vif A3G | Calb FLC | AF4-AF9 inh | T cruzi repl
Cc1cccc(C)c1N1C(=O)[C@@H]2C(c3ccccc3Cl)=NO[C@@H]2C1=O
 : ? | -6 | 0.5 | -1.3 | -6% | 13 | 0.3 | -13
O=C(CNc1ccc(Br)cc1)NNC1=NCCC1
 : 0.8 | -3 | 0.9 | / | -9% | -12 | / | -1

# Remaining list, next part:
SMILES,RanGTP-Impb inh,Beta cell apopt,A1 inh,LANA-H2B inh,Vif A3G,Calb FLC,AF4-AF9 inh,T cruzi repl
O=C(N/N=C/c1ccncc1)/C(=C/c1ccccc1)NC(=O)c1ccccc1,-0.9,-1,0.1,2.7,5%,2,-1.3,-46
CCCn1c2c(c(O)c(C(=O)Nc3ccccc3)c1=O)CCCC2,-3.3,-3,0.4,-0.1,1%,-2,/,18
Cc1ccc(Cl)c(OCC(=O)Nc2ccccc2C(=O)NC2CC2)c1,5.0,-9,0.4,-1.4,/,-4,-1.8,4
O=S(=O)(c1ccccc1S(=O)(=O)N1CCCCC1)N1CCCCC1,-2.0,-7,1.7,1.0,-3%,-7,5.1,-15
COCCNC(=O)c1onc(CSc2cccc(OC)c2)c1C(=O)O,-6.1,-15,-0.5,-4.8,-7%,3,-0.5,1
O=C(Nc1ccnc(-c2ccncc2)n1)C1CC1,?,5,0.8,4.0,/,19,-0.3,1
